From PubChem
KCNQ2 enhance = potentiators of rat KCNQ2 potassium channel. O88943. CHO-K1 KCNQ2, FluxOR thallium flux fluorescence; hits give high values. B-score at 10 µM. actives 0.54% (n = 310,000). AID 2239;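 active = fluorescence ratio B-score at least 3 SD of library B-scores, with initial fluorescence B-score within 3 SD, cut at about 5.3 in these data; same plate scores as AID 2156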;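 also: B-score of peak minus minimum over baseline fluorescence ratio after K+ and Tl+ stimulus; positive B-score means potentiation of KCNQ2 with more thallium influx and brighter signal; only the inactives scoring about 0 or higher are listed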
Target sequence (O88943 whole entry, looked up): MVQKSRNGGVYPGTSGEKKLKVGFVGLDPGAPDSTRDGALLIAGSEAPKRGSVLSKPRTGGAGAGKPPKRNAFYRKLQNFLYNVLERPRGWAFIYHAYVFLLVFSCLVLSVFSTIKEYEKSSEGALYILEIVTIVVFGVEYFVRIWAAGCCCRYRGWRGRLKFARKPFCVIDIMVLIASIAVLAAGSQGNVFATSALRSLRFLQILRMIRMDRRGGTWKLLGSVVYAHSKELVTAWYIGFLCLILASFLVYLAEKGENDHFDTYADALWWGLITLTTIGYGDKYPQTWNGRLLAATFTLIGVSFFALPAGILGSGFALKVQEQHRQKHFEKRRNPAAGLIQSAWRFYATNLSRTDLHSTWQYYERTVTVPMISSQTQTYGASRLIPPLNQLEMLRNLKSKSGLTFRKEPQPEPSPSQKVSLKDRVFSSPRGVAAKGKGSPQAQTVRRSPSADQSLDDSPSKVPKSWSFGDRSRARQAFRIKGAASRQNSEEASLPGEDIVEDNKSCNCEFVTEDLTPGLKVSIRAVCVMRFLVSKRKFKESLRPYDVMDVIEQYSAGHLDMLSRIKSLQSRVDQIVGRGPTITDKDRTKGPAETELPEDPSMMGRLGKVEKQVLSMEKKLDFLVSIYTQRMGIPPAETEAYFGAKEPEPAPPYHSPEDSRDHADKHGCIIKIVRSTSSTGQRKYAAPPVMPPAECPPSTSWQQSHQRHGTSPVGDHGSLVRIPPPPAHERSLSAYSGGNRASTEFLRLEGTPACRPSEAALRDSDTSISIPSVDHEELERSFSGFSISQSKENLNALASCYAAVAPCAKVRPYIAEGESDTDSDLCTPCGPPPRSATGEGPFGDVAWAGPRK
KCNQ2 enhance baseline = recorded beside KCNQ2 enhance, whose call it bears; B-score; compound at 10 µM; measured here: initial fluorescence intensity artifact check;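 brightness before thallium and not channel activity; 0 = typical well and far values either way flag optical interference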
* hit, by the source's call. A portion of the library; rates above refer to the full screens.

SMILES	KCNQ2 enhance	KCNQ2 enhance baseline
CCOc1ccc(C(C)NC(=O)Nc2ccc(F)cc2F)cc1 (centres undefined)	2.2	1.6
Clc1ccccc1OCCCn1ccnc1	1.1	1.9
COc1ccc(NC(=O)CSc2nnc(C3CCCCC3)n2N)c(OC)c1	0.42	-0.31
COc1ccc(C)cc1NC(=O)C1CCCN(S(=O)(=O)c2cccnc2)C1 (centres undefined)	0.49	0.09
O=S(=O)(NC1CCCCCCC1)c1ccc(F)cc1	0.35	-0.14
CC1C(=O)N2CCCc3cc(S(=O)(=O)N4CCN(c5ccc(F)cc5)CC4)cc1c32 (centres undefined)	1	0.7
CCc1ccccc1NC(=O)C1CCN(C(=O)N2CCOc3ccccc32)CC1	0.06	2
CCCS(=O)(=O)N1CCCC(C(=O)NC(C)c2ccc3c(c2)OCCO3)C1 (centres undefined)	0.32	1.1
CC(Oc1ccccc1)C(=O)NNC(=O)c1cccs1 (centres undefined)	1.4	-0.13
O=C(CSc1nnc(-c2ccc3c(c2)OCO3)o1)Nc1ncc(Cl)cc1Cl	0.89	-1.7
O=S(=O)(Nc1ccc(Cl)c(Cl)c1)N1CCOCC1	1.3	-1.2
O=C(N/N=C/c1ccccc1C(=O)O)C(=O)N1CCCCC1	1.1	0.1
COc1ccc(CN(CC(=O)NCc2ccc(F)cc2)C(=O)c2ccco2)cc1	0.86	-0.59
CCOc1ccccc1Nc1ncccc1C(=O)O	1.7	-1.2
NC(=O)c1cc(-c2ccccc2)nc2ccc(Br)cc12	0.13	2.1
COc1ccc2nc3sc(C(=O)N4CCN(C)CC4)cc3cc2c1	0.28	0.22
C#CCNC(=O)C1=C[C@H](c2cn(C(C)=O)c3ccccc23)[C@@H](CCCO)[C@H](OCC)O1	0.08	0.1
O=C(NC(=S)N(CCCCO)C1CCCCC1)c1sc2ccccc2c1Cl	17*	0.19*
Cc1cc(=O)[nH]c(SCC2COC3(CCCCC3)O2)n1 (centres undefined)	0.04	0.03
CCNc1nc2c(c(=O)n(C)c(=O)n2C)n1Cc1ccc(Cl)cc1	0.1	1.9
Cc1ccc(C(=O)Nc2nccs2)cc1S(=O)(=O)N1CCCCC1	1.7	-0.17
Cc1ccc(NC(=S)N2CCSC2c2cccs2)cc1 (centres undefined)	0.14	-1.1
CCCC(CCC(=O)NC1CCCCC1)C(=O)O (centres undefined)	0.84	0.05
CC(C)S(=O)(=O)c1csc(NC(=O)Nc2cc(Cl)ccc2Cl)c1Cl	0.43	-1.6
O=C(NCc1ccccc1)C1CC2CCCC(C1)C2=O (centres undefined)	1.6	1.3
Cn1c(CCc2ccccc2)nnc1SCC(N)=O	0.29	-1.1
Cc1cccc(NC(=O)CSc2nnc(-c3cc(C)[nH]n3)n2N)c1	1.1	-0.86
O=C(Nc1ccccc1)OC(CN1CCCCC1)C(F)(F)F (centres undefined)	0.08	0.46
COc1ccc(N2CCN(C(=O)c3cccs3)CC2)cc1	0.5	0.07
CN(C)/C=C(/C(=O)c1ccc(Cl)cc1Cl)S(=O)(=O)c1ccccc1	3.5	-0.51
Cc1c(Cl)ccc2c(C(=O)NCCCn3nccc3C)cc(-c3ccccn3)nc12	0.24	2.3
Cc1ccc(CNC(=O)C2CCC(=O)N(C3CC3)C2)cc1 (centres undefined)	1.1	0.74
CCCN(CCC)CCNC(=O)c1cc2c(-c3ccccc3F)nn(C)c2s1	0.1	0.21
O=C(O)CCCCCN1C(=O)CSC1=S	1.2	-0.77
Cc1c(CN2CCCCC2C)c(=O)n(-c2ccccc2)n1C (centres undefined)	0.86	0.57
COC(=O)c1ccc(CN2CCN(C3CCCCC3)C(CCO)C2)cc1 (centres undefined)	0.35	-0.66
COc1ccc(CCNC(=O)C(C)n2nc(C)n3c(cc4occc43)c2=O)cc1OC (centres undefined)	1.9	1.6
CCCNS(=O)(=O)c1ccc(CCC(=O)N2CCOCC2)cc1	0.97	0.07
CN(CC(=O)Nc1ccccc1C(F)(F)F)C(=O)c1cc2c(s1)CCCCC2	0.78	-0.57
CCOC(=O)C1CCN(C(=O)NS(=O)(=O)c2ccc(C)cc2)CC1	0.82	-1.3
CCOc1ccc(C(c2c(C)[nH][nH]c2=O)c2c(C)[nH][nH]c2=O)cc1OC	0.52	-0.13
CCOC(=O)c1sc2nc(CC(C)C)c3c(c2c1N)CCC3	0.16	-1.3
CC1CCN(CCCNC(=O)C2CC(=O)N(CCc3ccccc3)C2)CC1 (centres undefined)	0.73	-0.15
O=C(/C=C/N1CCN(Cc2ccccc2)CC1)C(F)(F)F	0.44	0.44
CCOC(=O)c1cnn(-c2ccccc2)c1NC(=O)C(F)(F)C(F)(F)C(F)(F)F	0.71	0.03
CCc1ccc(CNC(=O)C2CC(=O)N(CCc3ccc(C)cc3)C2)cc1 (centres undefined)	1.2	-0.76
CC1CC(C)CN(C(=O)Cn2cc(C=O)c3ccccc32)C1 (centres undefined)	0.02	1.5
CCN(CC)C(=O)CSc1nnc(-c2ccccc2)n1N	0.73	-0.28

Among those listed so far, 3 contain an NH in an aromatic ring:
SMILES	KCNQ2 enhance	KCNQ2 enhance baseline
Cc1cc(=O)[nH]c(SCC2COC3(CCCCC3)O2)n1 (centres undefined)	0.04	0.03
Cc1cccc(NC(=O)CSc2nnc(-c3cc(C)[nH]n3)n2N)c1	1.1	-0.86
CCOc1ccc(C(c2c(C)[nH][nH]c2=O)c2c(C)[nH][nH]c2=O)cc1OC	0.52	-0.13

The listing continues.
SMILES	KCNQ2 enhance	KCNQ2 enhance baseline
CN(CCCC(=O)NCc1ccco1)S(=O)(=O)c1ccccc1	0.58	1.3
CN1CCN(c2ccc(NC(=O)c3ccc4c(c3)OCCO4)cc2)CC1	0.2	-0.56
CC(C)c1c(C(=O)N/N=C/c2ccc(OCc3ccc(F)cc3)cc2)nnn1-c1nonc1N	0.03	-0.29
Cc1ccccc1-n1nnnc1SCC(=O)NCC1CCCO1 (centres undefined)	0.12	-0.82
COc1cc(S(=O)(=O)N(C)C)ccc1Br	0.4	0.01
COC(=O)C1C(=O)NCC1c1ccccc1 (centres undefined)	1.4	0.21
CCOC(=O)Nc1ccc(S(=O)(=O)Nn2cnnc2)cc1	1.1	-0.44
O=C(Cn1cc2c(n1)CCCC2)NCCCN1CCN(C2CCCCC2)CC1	1.6	-0.84
CCCn1c(C)cc(/C=C(\C#N)C(=O)O)c1C	1.4	0.6
COc1cc(S(=O)(=O)Nc2c(C)cc(C)cc2C)ccc1Cl	0.02	0.34
O=C(O)CSc1ncnc2scc(-c3ccc(Br)cc3)c12	0.06	-3
O=C(O)C1CC=CCC1C(=O)NC12CC3CC(CC(C3)C1)C2 (centres undefined)	1	-1.3
O=C(NCc1ccco1)/C(=C/c1ccc(Cl)cc1)NC(=O)c1ccco1	0.01	-0.91
CCOC(=O)C1CCCN(C(=O)c2ccc(S(=O)(=O)N3CCCC3)cc2)C1 (centres undefined)	1.3	1.3
Cc1ccc(C2CC(=O)c3cnn(-c4nc(C)cc(C)n4)c3C2)cc1 (centres undefined)	1.2	-0.99
O=S1(=O)C=CC(Nc2cccc(Cl)c2)C1 (centres undefined)	3.8	-0.17
O=C1Nc2ccccc2C1(O)c1ccccc1 (centres undefined)	0.72	0.49
O=C(NCc1ccco1)c1ccccc1O	1.9	0.84
CCCCNC(=S)Nc1ccccc1F	1.5	-0.03
CCc1ccccc1NC(=O)CSc1nnc(Cn2nnc3ccccc32)n1C	0.84	-0.57
Cc1ccccc1OCc1nc2ccc(S(=O)(=O)N3CCOCC3)cc2[nH]1	1.3	-0.28
Nc1ncnc2c1ncn2[C@H]1C[C@H](O)[C@@H](COP(=O)(O)O)O1	0.68	-0.34
Cc1ccccc1C(=O)NN(C)c1nc2ccccc2nc1C(F)(F)F	1	-0.01
CCn1cc(C(C)NC(=O)COc2ccc(Cl)cc2C)c(C)n1 (centres undefined)	0.38	-0.26
FC(F)Sc1nc2ccccc2[nH]1	3.4	-1.3
COCCCNC(=O)c1ccc(S(=O)(=O)c2ccc(Cl)cc2)c(NC(C)=O)c1	0.24	-0.02
CN(CCC#N)C(=O)COC(=O)c1ccc(CNS(=O)(=O)c2ccc(F)c(Cl)c2)cc1	0.49	-0.17
N/C(=N\OC(=O)CCC1CCCC1)c1ccc([N+](=O)[O-])cc1	0.44	0.68
COc1cccc(CC(NC(C)=O)C(=O)NC2CCN(S(=O)(=O)c3ccc(NC(C)=O)cc3)CC2)c1OC (centres undefined)	0.37	-0.88
Cc1cccc(C)c1NC(=O)CNC(=O)c1cccnc1	0.03	-0.25
CC(=O)Nc1ccc(/C=C/c2noc(-c3ccccc3O)n2)cc1	0.06	2
O=C(N1CCOCC1)N1CCN(c2nc(-c3ccc(F)cc3)cs2)CC1	0.96	0.06
CC1CCC(NC(=O)Cn2c(=O)[nH]c3ccsc3c2=O)CC1 (centres undefined)	0.35	1.2
CN1CCN(C(=S)c2cn(Cc3ccccc3)c3ccccc23)CC1	0.14	-0.29
CC(=O)c1cccc(NCC(=O)Nc2cccc(S(=O)(=O)N3CCCCC3)c2)c1	2.3	1.9
Cc1c(NC(=O)c2ccco2)cccc1C(=O)NN1C(=O)c2ccccc2C1=O	0.02	-0.23

Three compounds from above, sorted by the number in KCNQ2 enhance, smallest number first.
SMILES	KCNQ2 enhance	KCNQ2 enhance baseline
CN1CCN(C(=S)c2cn(Cc3ccccc3)c3ccccc23)CC1	0.14	-0.29
CC1CCC(NC(=O)Cn2c(=O)[nH]c3ccsc3c2=O)CC1 (centres undefined)	0.35	1.2
CC(=O)c1cccc(NCC(=O)Nc2cccc(S(=O)(=O)N3CCCCC3)c2)c1	2.3	1.9

3 compounds picked at random from those above:
SMILES	KCNQ2 enhance	KCNQ2 enhance baseline
O=C(Cn1cc2c(n1)CCCC2)NCCCN1CCN(C2CCCCC2)CC1	1.6	-0.84
CCOC(=O)Nc1ccc(S(=O)(=O)Nn2cnnc2)cc1	1.1	-0.44
COc1ccc(CN(CC(=O)NCc2ccc(F)cc2)C(=O)c2ccco2)cc1	0.86	-0.59

More results
SMILES	KCNQ2 enhance	KCNQ2 enhance baseline
Cn1c(=O)c(C(=O)CSc2nncs2)c(N)n(Cc2ccccc2)c1=O	1.3	0
O=C1c2ccccc2NC(c2ccco2)N1NS(=O)(=O)c1ccccc1 (centres undefined)	0.01	-1.7
O=C(COc1ccc(Cl)cc1Cl)Nc1cccc(-c2ccc(N3CCOCC3)nn2)c1	1.3	1
CCCC(C(=O)NC1CCCC1)N(Cc1ccccc1)C(=O)c1snc(C(N)=O)c1N (centres undefined)	0.05	0.91
Clc1ccccc1-c1csc(Nc2cccnc2)n1	0.01	-1.3
C[C@H](NC(=O)c1cc2c([nH]c3ccccc32)c(-c2ccccc2)n1)C(=O)O	0.33	-0.63
Cc1c(C(=O)Nc2ccc3c(c2)OCCO3)sc2nc(-c3ccccc3)cn12	0.1	-1.2
C/C(=N/NC(=O)CNC(=O)COc1ccccc1)c1ccc(Cl)cc1	0.22	-0.76
CC(=O)Nc1ccc(C(=O)Nc2ccc(S(=O)(=O)N3CCOCC3)cc2)cc1	1	0.08
CCN(CC)C(=O)CSc1nc2ccccc2c(=O)n1OC(C)C	0.79	0.24
CC1CCCN(CC(O)CN)C1 (centres undefined)	1	0.68
COc1ccc(/C=C/C(=O)Nc2nnc(C(C)C)s2)cc1OC	0.14	1.6
Cc1cc(NC(=O)CCC(=O)N(c2ccccc2)C(C)C(=O)NC2CCCC2)no1 (centres undefined)	1.1	0
C#CCN1C(=O)C(O)(c2c(C)[nH]c3ccccc23)c2ccccc21 (centres undefined)	0.42	-1.7
COC(=O)c1ccc(C2C(C#N)=C(N)Oc3cc(C)n(C)c(=O)c32)cc1 (centres undefined)	0.26	1.3
COc1ccccc1/C=C/C(=O)c1c2c(c(C)[nH]c1=O)CCCC2	0.62	0.21
CCCOC(=O)c1c(-c2ccc(C)cc2C)csc1NC(=O)C1C2CCC(O2)C1C(=O)O (centres undefined)	0.49	0
C/C(CC(=O)Nc1ccc(N(C)C)cc1)=N\NC(=O)c1ccc([N+](=O)[O-])cc1Cl	0.03	0.96
Cc1occc1C(=O)Nc1nnc(C(F)(F)F)s1	0.69	0.76
Cc1ccc(-c2nnc(SCC(=O)N/N=C/c3ccc(C(=O)O)cc3)n2C2CCCCC2)cc1	1.2	1.4
COc1ccc(/C=N/OCC(=O)Nc2nc3ccccc3s2)cc1	1.2	-1.1
Cc1ccc(CS(=O)(=O)c2ncc(Cl)c(C(=O)Nc3nnc(C(C)C)s3)n2)cc1	16*	-1.3*
COc1ccc(OC)c(CNC(=O)C2CCCN(C(=O)N(C)C)C2)c1 (centres undefined)	0.3	-0.71
CCn1cc(SCC(=O)Nc2cc(C)on2)c2ccccc21	0.04	2.9
CNS(=O)(=O)c1cccc(C(=O)Nc2cccc(Cl)c2)c1	1.4	-0.09
Cc1cc(C)c[n+](-c2nc3ccccc3nc2[N-]S(=O)(=O)c2ccc(Br)s2)c1	0.97	2.8
CCN(CC)S(=O)(=O)c1ccc(N=NC2=C(O)CCCC2=O)cc1	0.24	0.29
CN(C)C(=O)CN1C(=O)NC2(CCCc3ccccc32)C1=O (centres undefined)	0.23	0.04
CN(C)CCSc1nc(-c2ccccc2)nc2c1CCC2	1.6	-0.19
O=c1c2ccccc2ncn1CCCCOc1ccccc1F	0.15	-0.32
COc1cc(CNCc2ccccn2)ccc1OCc1ccc(Cl)cc1	1.3	1.8
CCn1c(C)nc2c1C(=O)c1ccccc1C2=O	0.28	-0.97

For convenience, six of the compounds above:
SMILES	KCNQ2 enhance	KCNQ2 enhance baseline
CCOc1ccc(C(C)NC(=O)Nc2ccc(F)cc2F)cc1 (centres undefined)	2.2	1.6
Clc1ccccc1OCCCn1ccnc1	1.1	1.9
COc1ccc(NC(=O)CSc2nnc(C3CCCCC3)n2N)c(OC)c1	0.42	-0.31
COc1ccc(C)cc1NC(=O)C1CCCN(S(=O)(=O)c2cccnc2)C1 (centres undefined)	0.49	0.09
O=S(=O)(NC1CCCCCCC1)c1ccc(F)cc1	0.35	-0.14
CC1C(=O)N2CCCc3cc(S(=O)(=O)N4CCN(c5ccc(F)cc5)CC4)cc1c32 (centres undefined)	1	0.7
